Assay outcomes deposited in PubChem by National Center for Advancing Translational Sciences (NCATS).
NS1 inh = inhibitors of influenza NS1 protein function | S. cerevisiae slowed by influenza A NS1, growth recovery by OD600 | Potency, µM (series often up to 46.1 µM), for inactives: at the highest dose activity, positive = more growth | 270,000 tested, 0.4% active | AID 2326; active means well fitted rising curve with a large enough effect; inconclusive means small, poorly fitted or top-dose-only effect; inactive means no such curve, though single readings can be large or run the other way; note: nearly all actives have a fitted effect of over 50% in size
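S. cerevisiae expressing influenza A NS1, grown in glucose, washed, then diluted 1:100 into pH 6.0 -URA galactose medium with 23 nl compound. Growth recovery read as OD600; NS1-free strain serves as control.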
2A StopGo = lowers the luciferase signal of an FMDV 2A StopGo reporter | Potency, µM (doses to about 57.9 µM), for inactives: at the highest dose signal change, negative = less light | human cells with a luciferase reporter of 2A StopGo recoding; control for the full effect not named in the record | 410,000 tested, 1.2% active; active = well fitted falling curve with a large enough effect; inconclusive = small, poorly fitted or top-dose-only effect; inactive = no such curve, though single readings can be large or run the other way; tested in HEK293T cells; note: % is set by controls: 0 for no effect and ±100 for the full control effect; nearly all actives have a fitted effect of over 45% in size; luciferase light after 4 h
Cruzain inh noDet = cruzain (T. cruzi) inhibition without detergent; Potency, µM, inactives show max response, negative = inhibition, usual class: inhibitors; 200,000 tested, 2.3% active; P25779; purified cruzain, Z-FR-AMC fluorescence, no detergent;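 note: plate controls were enzyme without inhibitor for no effect and buffer without enzyme for full effect; nearly all actives have a fitted effect of over 40% in size; top concentration of the series not given in the record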
Target sequence (P25779 123-467 limits assumed): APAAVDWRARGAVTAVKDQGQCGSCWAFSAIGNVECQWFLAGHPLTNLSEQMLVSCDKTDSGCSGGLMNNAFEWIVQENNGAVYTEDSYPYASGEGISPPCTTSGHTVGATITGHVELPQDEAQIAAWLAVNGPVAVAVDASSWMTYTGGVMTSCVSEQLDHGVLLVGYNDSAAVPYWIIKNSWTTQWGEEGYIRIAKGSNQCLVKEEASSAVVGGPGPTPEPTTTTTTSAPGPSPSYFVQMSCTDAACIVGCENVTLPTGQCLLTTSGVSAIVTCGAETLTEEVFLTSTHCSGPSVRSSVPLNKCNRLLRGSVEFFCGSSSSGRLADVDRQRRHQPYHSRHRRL
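Purified cruzain at 1.5 nM, pre-incubated 15 min with compound at room temperature in 100 mM sodium acetate pH 5.5, 5 mM DTT, 0.00005% Triton X-100. Reaction started with 2 uM Z-FR-AMC; AMC fluorescence increase over 60 s gives rate.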
Marburg entry inh = blocks Marburg virus binding to or entry into cells. Potency, µM (titrated, usually from 37.8 µM), for the others: top-dose activity change, negative = inhibition, usual class: inhibitors. AID 540276. 300,000 tested, 1.8% active. Marburg virus pseudotyped entry inhibition, cell reporter; control for the full effect not named in the record; about a third of the inactives were read at about 46 µM; active = well fitted inhibition curve with a large enough effect; inconclusive = small, poorly fitted or top-dose-only effect, or effect the other way; inactive = flat fitted curve, though single readings scatter; tested in HEK293 cells; about a fifth of its hits are not listed in these tables; note: % is set by controls: 0 for no effect and ±100 for the full control effect; luciferase read-out
SARS PLpro yeast = blocks SARS-CoV papain-like protease in a yeast assay | S. cerevisiae expressing SARS-CoV PLpro, growth rescue; control for the full effect not named in the record | Potency, µM (top dose mostly 32.9 µM), for the others: at the highest dose activity, positive = growth rescue | 330,000 tested, 0.19% active; active means well fitted rising curve with a large enough effect; inconclusive means small, poorly fitted or top-dose-only effect; inactive means no such curve, though single readings can be large or run the other way; note: 0% is about no effect; nearly all actives have a fitted effect of over 55% in size; growth read by luminescence after 48 h
LASV entry inh = blocks Lassa virus binding to or entry into cells. Lassa virus pseudotype entry inhibition, cell reporter; control for the full effect not named in the record. Potency, µM (series often up to 37.9 µM), without a hit: top-dose activity change, negative = inhibition, hits mostly inhibitors. 300,000 tested, 1.2% active. AID 540256; active means well fitted inhibition curve with a large enough effect; inconclusive means small, poorly fitted or top-dose-only effect, or effect the other way; inactive means flat fitted curve, though single readings scatter; tested in HEK293 cells; note: % is set by controls: 0 for no effect and ±100 for the full control effect; nearly all actives have a fitted effect of over 50% in size; luciferase read-out
RE007 growth inh = less growth of the S. pombe RE007 Vpr strain. S. pombe RE007 Vpr strain, BacTiter-Glo ATP luminescence, 24 h; control for the full effect not named in the record. 360,000 tested, 0.21% active. Potency, µM (doses to about 92.2 µM), for inactives: at the top dose activity change, negative = less growth; active = well fitted falling curve with a large enough effect; inconclusive = small, poorly fitted or top-dose-only effect; inactive = no such curve, though single readings can be large or run the other way;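 note: % is set by controls: 0 for no effect and ±100 for the full control effect; nearly all actives have a fitted effect of over 50% in size; the assay follows cell death caused by Vpr and the record does not say whether a fall means rescue or toxicity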
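Fission yeast RE007 carrying one integrated HIV-1 vpr copy, seeded at OD 0.01 in PMG+AL medium with 23 nL pinned compound. Grown 24 h at 30 degrees; viability read by BacTiter-Glo luminescence after 5 min.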
Cruzain inh Det = inhibitors of Trypanosoma cruzi cruzain with detergent; 200,000 tested, 0.43% active; P25779; AID 1478; purified cruzain, Z-FR-AMC fluorescence, 0.01% Triton; Potency, µM, for inactives: max response, negative = inhibition, usual class: inhibitors;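 note: plate controls were neutral wells for no effect and buffer without enzyme for full effect; nearly all actives have a fitted effect of over 40% in size; top concentration of the series not given in the record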
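Compounds were screened in titration against cruzain (1.5 nM) with 0.01% Triton X-100 to counter colloidal aggregation. Activity was the AMC fluorescence increase over 60 s after adding 2 uM Z-FR-AMC at pH 5.5.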
The depositor's hits bear a star; ? = inconclusive; . = not tested or not shown; & = joins results of further samples; [ ] = remark or other dose. Unless noted, calls come from the whole dose curve; as a rule, active = well fitted curve in the direction sought with a large enough effect; inconclusive = small, poorly fitted or top-dose-only effect, or another doubt; inactive = no such curve, though single readings can be large; an effect the other way counts as inactive or inconclusive. Potency is the fitted concentration of half-maximal effect. This is a random part of the collection; any-hit rate near 4.5%.

Value order – Cruzain inh noDet, 2A StopGo, RE007 growth inh, Marburg entry inh, Cruzain inh Det, NS1 inh, LASV entry inh, SARS PLpro yeast
CCOc1ccccc1NC1=NCC(=O)N1Cc1ccc(F)cc1
    1%, ., -7%, 21%, 1.7%, 5%, 16%, 4%
S=C(NCc1ccccn1)Nc1ccccc1Cl
    -8%, 40%[activator], ?, 30%, -0.3%, 15%, 23%, -1%
N#Cc1c(F)cccc1N1CCOCC1
    -4%, -8%, 3%, -8%, 0.7%, 4%, -1%, 8%
CCOc1ccc(S(=O)(=O)N2CC(=O)Nc3ccccc32)cc1C#N
    ., 0%, -7%, -11%[46.1 µM], ., 5%, 18%[46.1 µM], 0%
COc1cc(C(=O)NCC2CCCCC2)cc(OC)c1OC
    ., 4%, 22%, -2%, ., -1%, -17%, 2%
CC1(C(=O)Nc2ccc3c(c2)OCO3)CC1(Cl)Cl (configuration not stated)
    ., 7%, 17%, 29%[46.1 µM], ., 9%, 25%[46.1 µM], 2%
O=C1CC(N2CCOCC2)=NN1c1ccc([N+](=O)[O-])cc1
    ., 13%, -18%, 17%, ., 1%, ?, 0%
CC(=O)Nc1ccc(S(=O)(=O)N2CCSC2c2ccco2)cc1 (configuration not stated)
    ., -13%, -7%, 1%[46.1 µM], ., -6%, ?, -1%
CC(C)c1ccc(/C=N/NC(=O)c2nnn(-c3nonc3N)c2CN(C)C2CCCCC2)cc1
    ., -20%, -11%, ., ., 1%, ., 1%
COc1ccc(C(C#N)N2CCC(c3ccccc3)=N2)cc1OC (configuration not stated)
    ., 9%, -22%, 0%[46.1 µM], ., 4%, -10%, -2%
Clc1ccc(CSc2nnc([C@@H]3CCCN3)o2)cc1
    -11%, -2%, 11%, 15%[46.1 µM], 7.0%, 9%, 8%, -12%
CCCCn1nnc(NC(=O)CC23CC4CC(CC(C4)C2)C3)n1
    -3%, -3%, 5%, 3%, 2.9%, -26%, -18%, -10%
COc1cc2c(=O)n(Cc3ccccc3)c(=O)n(CC(=O)NCC3CCCO3)c2cc1OC (configuration not stated)
    5%, -26%, 11%, 24%, -7.0%, -4%, 9%, 0%
O=C(CSc1nc2ccsc2c(=O)n1Cc1ccccc1)NCc1ccco1
    1%, -1%, 10%, -5%, -5.2%, 8%, -26%, 2%
CCCc1cc(C(=O)Nc2cc(OC)c(Cl)cc2OC)no1
    -10%, -18%, 4%, ., 0.1%, -34%, ., -3%
CCn1c(SCC(=O)NC(C)C(C)C)nc2cc(S(=O)(=O)N3CCOCC3)ccc21 (configuration not stated)
    ., -11%, -4%, 8%, ., -5%, 11%, 1%
CCOC(=O)N1CCC(NC(=O)c2ccc3c(c2)N(Cc2ccc(Cl)cc2)C(=O)c2ccccc2S3=O)CC1 (configuration not stated)
    4%, -26%, ., ?, -0.3%, ., -24%[46.1 µM], .
O=C(CC1Sc2ccccc2NC1=O)OC(C(=O)NCCc1ccccc1)c1cccnc1 (configuration not stated)
    ?, -9%, 16%, 0%, ?, -2%, -8%, 0%
O=C(O)CCC(=O)Nc1ccccc1C(=O)Nc1ccccc1
    -8%, 25%, 18%, 19%, 1.2%, -1%, -5%, 15%
O=C(CCN1C(=O)c2ccccc2C1=O)CN1CCOCC1
    ., -6%, 13%, -3%[46.1 µM], ., 7%, ?, 0%
CC1CCN(S(=O)(=O)c2cc(Cl)ccc2Br)CC1
    -11%, -1%, -9%, -2%, -3.0%, -58%, -9%, -14%
C/C(=N/NC(=O)c1ccc2nc[nH]c2c1)c1cccs1
    9%, -30%, 0%, ?, -7.2%, -8%, ?, -1%
COCCn1c(SCC(=O)N2CCCCC2)nc2ccccc2c1=O
    -3%, -10%, -19%, 3%, 1.9%, -37%, 3%, 15%
CCOC(=O)C1=C(C)Nc2ncnn2C1c1ccc2c(c1)OCO2 (configuration not stated)
    -2%, ., -9%, 0%, 4.4%, 0%, -20%, 0%
Cc1cc(NC(=O)c2cc([N+](=O)[O-])cc([N+](=O)[O-])c2)no1
    ., -21%, 3%, ., ., -1%, ., 0%
NS(=O)(=O)c1ccc(CCNC(=O)Cn2c(=O)c3cccn3c3cccnc32)cc1
    ., -11%, 0%, 19%[46.1 µM], ., -19%, -4%[46.1 µM], ?
O=C(NC1CCSC1=O)C1CCCCC1 (configuration not stated)
    ., -5%, 12%, -13%[46.1 µM], ., 0%, -9%[46.1 µM], 0%
Cc1nc2oc3ccc(F)cc3c(=O)c2cc1C(=O)NC(C)(C)C
    ., 50%[activator], -13%, 28%[46.1 µM], ., -1%, 16%, 0%
O=C(NC(=S)Nc1cc(-c2nc3ccccc3[nH]2)ccc1Cl)c1ccc2c(c1)OCO2
    32µM*, ?, 3%, -27%, 18µM*, 23%, ?, -46%
Cc1ccc(-c2csc3ncnc(Cl)c23)cc1
    2%, ?, -14%, 5%, -3.1%, -19%, -27%, 11%
CCOc1ccc(S(=O)(=O)N(C)c2ccc(OCC(=O)NC3=NCCS3)cc2)cc1
    ., -2%, -14%, -3%[46.1 µM], ., ., 16%[46.1 µM], -1%
O=C(O)C1CCC(=O)N(C2CCCCC2)C1c1ccccc1 (configuration not stated)
    -6%, 12%, -6%, -24%, -0.2%, 0%, -1%, 0%
CC(/C=C/c1ccc2c(c1)OCO2)=N\NC(=O)c1cccc([N+](=O)[O-])c1
    -19%, 25%, 15%, -8%, -4.0%, -48%, -15%, 10%
CC(C)NC(=O)NNC(=O)c1nn(-c2ccc(F)cc2)ccc1=O
    ., -8%, -2%, ?, ., -1%, 7%, 1%
COc1cc(C(c2c(C)[nH][nH]c2=O)c2c(C)[nH][nH]c2=O)cc(Br)c1OC
    ., -19%, 5%, ., ., 7%, ., -6%
CC(=O)/C(=N\Nc1ccccc1Cl)Sc1cccc2cccnc12
    6%, ?, -14%, 3%, -2.2%, -5%, 3%, 2%
Oc1cc2ccccc2cc1-c1n[nH]c(=S)o1
    -20%, 5%, -17%, 4%, -16%, -98%, -11%, -5%
COc1ccccc1-c1cc(C(F)(F)F)nc(S(=O)(=O)CCCC(=O)N2CCCCC2C)n1 (configuration not stated)
    28%, 7.9µM*, -16%, ?, -8.1%, -43%, ?, -2%
Cn1nnnc1SCCCNCc1ccc(-c2cccc(Cl)c2)o1
    -15%, -3%, ., -13%[46.1 µM], -7.0%, ., 19%[46.1 µM], .
Cc1ccc(S(=O)(=O)N2CCOCC2)cc1C(=O)NC1CCCC1
    ., -9%, -17%, 22%[46.1 µM], ., 4%, -2%, 0%
CCN(CC)CCN1c2ccccc2Sc2ccc3ccccc3c21
    -3%, -16%, -23%, 10µM*, -5.3%, -3%&-32%, 11%[46.1 µM], -1%
Cc1ccc(OCCSc2nnc(NC(=O)c3ccco3)s2)cc1
    25µM*, -23%, 2%, -3%, 3.7%, -1%, -2%, 2%
COc1ccc(C2c3c(ccc4ccccc34)Oc3ncn4nc(-c5ccco5)nc4c32)cc1OC (configuration not stated)
    0%, -22%, 4%, 1%, 2.9%, 5%, -7%, 13%
COC(=O)c1c(-c2ccc(F)cc2)csc1NC(=O)c1ccco1
    -7%, 42%[activator], -9%, 17%, -14%, 1%, ?, -1%
CCn1c(Cn2nnc(-c3ccccc3)n2)nnc1SCc1ccc(Cl)c(Cl)c1
    11%, ?, 3%, ?, -8.3%, -63%, -28%, -24%
COc1ccc(C(N)=S)c(OC)c1
    -1%, 4%, -2%, -6%, -2.1%, 12%, 22%[46.1 µM], 22%
CCOC(=O)N1CCN(C(=O)c2cc3c(=O)n(C)c4ccccc4c3n2C)CC1
    8%, 0%, -1%, ., 0.1%, -7%, ., 3%
CCOc1ccc(N2C(=O)Nc3ccccc3C2(O)C(=O)NCc2ccc3c(c2)OCO3)cc1 (configuration not stated)
    5%, 33%[activator], -2%, -2%[46.1 µM], 1.9%, 18%, 1%, -8%
Cc1cc2c(c(=O)o1)C(Cc1ccccc1)C(C#N)=C(N)O2 (configuration not stated)
    3%, 7%, 10%, 19%[46.1 µM], 1.1%, -3%, 1%, 13%
CN(C)S(=O)(=O)c1ccc(Cl)c(NC(=O)CN2CCCC2)c1
    ., 30%, 3%, 6%[46.1 µM], ., 5%, 0%, 5%
CCOc1ccc(/C=N/NC(=O)COc2ccccc2-c2ccccc2)cc1
    -2%, ?, 11%, ?, -4.0%, 19%, -9%, -7%
CCOC1=NS(=O)(=O)c2ccccc21
    5%, -19%, 25%, 16%, 0.0%, 2%, 10%, 0%
O=C(Nc1ccccc1)Nc1nnc(SCc2ccc(Cl)cc2)s1
    ?, ?, -12%, -1%, -1.1%, 8%, 8%, -13%
COc1ccc(NC(=O)c2c(-c3ccccc3Cl)noc2C)c(OC)c1
    -19%, -1%, 10%, 15µM*, -12%, -17%, ?, -2%
O=C(CCNC(=O)c1ccc(Br)cc1)NCc1ccccn1
    ., 7%, -12%, -14%, ., ., 18%, -5%
COc1ccccc1CNC(=O)CSC(=S)N1CCCC1
    ., -3%, -5%, 22%, ., ., -7%, .
COc1cccc(NC(=O)CN2C(=O)NC3(CCCC3)C2=O)c1
    ., 2%, 1%, 6%[46.1 µM], ., -8%, 23%[46.1 µM], 8%
CC(=O)c1cccc(NC(=O)c2noc3c2CCCC3)c1
    -4%, 13%, ., ?, -4.7%, ., ?, .
CCC(C(=O)NCc1ccc(C)o1)n1nc(C)c2c(C)n(-c3ccccc3)nc2c1=O (configuration not stated)
    ., -13%, 12%, -3%[46.1 µM], ., 21%, -14%[46.1 µM], 2%
COc1cccc(OC)c1C1=NCC(=O)Nc2c1oc1ccc(Br)cc21
    -14%, 0%, -3%, ?, -7.3%, -64%, ?, 19%
CCN(Cc1ccccc1)S(=O)(=O)c1nc2nc(C)c(C)c(C)n2n1
    14%, 34%[activator], 1%, -1%, 3.3%, -1%, -14%, 2%
O=C(Cn1cc(C(=O)c2cccs2)c2ccccc21)NCc1ccc2c(c1)OCO2
    ?, -17%, 1%, 0%, -2.6%, -67%, ., -2%
COc1cccc(-c2nn(-c3ccccc3)cc2CN2CCCO2)c1
    ., 13%, 4%, ?, ., -1%, 6%, 0%
